# Screens deposited in PubChem BioAssay by several laboratories.
# MT1-MMP act inh: inhibitors of human MT1-MMP activation | HT1080 RFP-PRO-GFP cells, GFP/RFP ratio fluorescence, overnight; percent of plate control window, DMSO zero | 360,000 compounds, 0.061% hits | P50281 | GFP/RFP ratio change, % at 20 µM;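 active = GFP/RFP ratio change of at least 30% with cell ATP level not reduced by more than half and red fluorescence within 50% of control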; also: strong numbers were not always called active
#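 Assay system: HT1080 RFP-PRO-GFP cells | Dosing: 20 µM single dose, 1% DMSO | Incubation: Cells overnight before dosing, compound overnight, 37 °C, 5% CO2 | Evaluation: GFP/RFP fluorescence ratio | Control set: DMSO-only wells and HT1080 RFP-L50D-GFP cell wells as references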
# PABP FP inh: blocks human PABP binding to poly(A) RNA | P11940 | fluorescence polarization | inhibition, % at 35 µM | 290,000 compounds, 1% hits;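 active = 50% or more with normal probe brightness, or confirmed in later tests; inconclusive = above 50% with abnormal brightness, or retests that disagree; inactive = below 50% or failed in later tests; about a fifth of its hits are not listed in these tables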;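 also: calls also rest on retests at 20 µM and on dose response follow-up; controls were probe without protein and protein plus probe with vehicle; some compounds called inactive have numbers as strong as hits; many hits fall short of the cut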
# HIV Env fusion: HIV envelope-mediated fusion inhibition; HeLa-JRFL Env/CEM21 cell fusion, luciferase; 360,000 compounds, 1.1% hits; inhibition, % at 12.3 µM;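 active = mean replicate inhibition score of at least 50 and every replicate individually at or above 50; inconclusive = only one of the two criteria met; inactive = mean below 50 and not all replicates reaching 50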;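 also: 0% = plate neutral controls and 100% = maraviroc near 300 nM; one replicate is shown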
# eIF4H inh: inhibitors of RNA binding by human eIF4H. Q15056. eIF4H fluorescence polarization binding assay. inhibition, % at 35 µM. 290,000 compounds, 0.94% hits. AID 2012;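 active = 50% or more with normal probe brightness, or confirmed in later tests; inconclusive = above 50% with abnormal brightness, or retests that disagree; inactive = below 50% or failed in later tests; about a fifth of its hits are not listed in these tables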;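 also: calls also rest on retests at 20 µM and on dose response follow-up; 0% = protein and probe with vehicle and 100% = probe without protein; strong numbers were not always called active; many hits fall short of the cut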
# UUG fidelity: modulators of start codon recognition fidelity in yeast. 350,000 compounds, 0.13% hits. activity score, % at 18.7 µM. AID 602363. S. cerevisiae UUG-firefly luciferase reporter, luminescence/redox ratio;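 active = replicate mean at a twofold rise or more, about +100% in these data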;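 also: firefly luciferase made from a UUG start codon reports start codon fidelity; reporter light over untreated wells divided by growth signal over untreated wells; some hits fall short of that in this replicate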
# CSC inhib: cancer stem cell inhibition; inhibition, % at 7.5 µM; cancer stem cell-like cells viability, luminescence; AID 2717; 300,000 compounds, 1.1% hits;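 active = mean at 75% or more and at least half the replicates too; inconclusive = mean and replicates disagree; tested in HMLE shEcad cells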;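 also: 0% = median of negative and 100% = median of positive control wells; the first replicate is given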
# Rce1 inhib: yeast Ras-converting enzyme inhibition; Q03530; yeast membranes, quenched prenylated peptide cleavage fluorescence; calls only; 290,000 compounds, 0.27% hits;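 active = fall in fluorescence gain of 50% or more versus controls, with final raw signal at or below 3038400; inconclusive = same 50% fall but final raw signal above 3038400; inactive = fall in fluorescence gain under 50%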;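 also: plate controls were neutral control wells for no effect and wells lacking membranes for full effect; tested at 10 µM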
# Target sequence (Q03530 whole entry, looked up): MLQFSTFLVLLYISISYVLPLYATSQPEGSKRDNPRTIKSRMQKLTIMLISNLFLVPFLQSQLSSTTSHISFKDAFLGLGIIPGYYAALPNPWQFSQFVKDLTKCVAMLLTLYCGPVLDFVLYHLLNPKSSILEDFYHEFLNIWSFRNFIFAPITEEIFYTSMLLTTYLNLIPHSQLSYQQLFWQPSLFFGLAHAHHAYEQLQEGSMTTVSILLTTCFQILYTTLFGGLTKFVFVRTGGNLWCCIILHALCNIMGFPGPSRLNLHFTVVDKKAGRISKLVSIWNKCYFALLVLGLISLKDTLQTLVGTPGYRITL
# eIF4H inh retest: further read-out of eIF4H inh, marked with its call; inhibition, %; compound at 20 µM; confirmation average;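 mean of two retest wells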
# PABP FP inh retest: second read-out of PABP FP inh, no call of its own (marks repeat the call); inhibition, %; compound at 20 µM; confirmation repeats;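 mean of two retest wells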
# MT1-MMP act inh RFP: second read-out of MT1-MMP act inh, no call of its own (marks repeat the call); RFP signal change, %; measured here: RFP expression control read;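 0 = vehicle wells; hits needed this value within 50% of zero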
# The depositor's hits bear a star; i = inactive; u = inconclusive; x = not tested or not shown; + = active, no number.
SMILES,MT1-MMP act inh,MT1-MMP act inh RFP,PABP FP inh,HIV Env fusion,eIF4H inh,UUG fidelity,CSC inhib,Rce1 inhib,others
Cc1cccc(-c2nn(-c3ccccc3)cc2C(=O)Nc2cccc(S(=O)(=O)NC3=NCCC3)c2)c1,3,0,x,2,x,-23,1,i,
Cc1cc(C)c(C)c(S(=O)(=O)N2CCN(C)CC2)c1C,-3,-1,1,17,-3,x,-6,i,
N#Cc1cc(-c2ccccc2)oc1NC(=O)c1ccccc1,-1,-6,5,x,-7,49,4,i,
C=CCOc1ccc(/C=C/C(=O)OCC(=O)NNC(=O)c2ccccc2F)cc1,1,2,x,7,x,-11,10,x,
COc1cccc(NC(=O)Cc2ccccc2)c1,5,2,2,-77,-5,4,5,i,
COc1ccc(CC(=O)Nc2ccc(N3CCOCC3)cc2)cc1S(=O)(=O)N1CCOCC1,-7,-3,14,-6,9,-12,7,i,
CC(=O)C1=C(O)C(=O)N(c2ccc(Br)cn2)C1c1ccccc1[N+](=O)[O-] (stereo not given),4,4,15,11,11,-6,-8,i,
CCSCc1nc(N)nc(NCCc2ccccc2)n1,1,1,-6,9,-1,-11,-2,i,
Cn1c(=O)c2c(SCC(=O)N3CCOCC3)nc(C3CC3)nc2n(C)c1=O,4,3,-17,x,-10,-2,-9,i,
CCn1cc(C(=O)Nc2ccccc2)c(=O)c2ccc(C)nc21,x,x,14,x,10,x,-4,i,
CC1CCC2(CC1)NC(=O)N(CC(=O)c1cn(CCC#N)c3ccccc13)C2=O (stereo not given),0,1,13,0,-4,x,-7,x,
COc1ccc(C)cc1NC(=S)N1CCN(c2ccccn2)CC1,1,4,12,-7,2,-6,x,i,
Cn1c(N)c(C(=O)COC(=O)COc2ccc(Cl)cc2)c(=O)n(C)c1=O,-1,6,x,x,x,2,1,x,
O=C1C2C3C=CC(CO)(O3)C2C(=O)N1c1ccccc1-c1ccccc1 (stereo not given),-2,0,3,x,-2,7,-7,x,
C#CCOCCOCCOCCNc1nc(N2CCN(C(=O)[C@H](CCC(=O)O)n3cc(C(N)CC(C)C)nn3)CC2)nc(N2CCN(C(=O)[C@H](Cc3ccc(O)cc3)n3cc(C(N)[C@H](C)CC)nn3)CC2)n1 (stereo not given in full),x,x,11,x,18,x,4,i,
O=C(CSc1nc(Nc2ccccc2)nc(N2CCOCC2)n1)Nc1ccc(Br)cc1F,0,-7,1,11,-5,-9,16,i,
COc1ccc(C#Cc2c(-c3ccsc3)oc3ccc(-c4cc(OC)c(OC)c(OC)c4)cc23)cc1,-1,3,x,1,x,-10,32,i,
S=C(c1ccc2c(c1)OCO2)N1CCCC1,4,2,1,x,-7,-12,5,i,
CN1CN(C)c2cccc3cccc1c23,0,-4,46,-76,90,-30,-15,i,eIF4H inh retest=-12;PABP FP inh retest=7
O=C(NC(NC1CCS(=O)(=O)C1)C(=O)c1ccccc1)c1ccc(Cl)cc1 (stereo not given),6,3,-3,x,-1,-8,-6,i,
N#CCCn1cc(/C=N/O)c(-c2ccc(-c3ccccc3)cc2)n1,-4,-10,-5,x,-3,-17,40,i,
CCn1c(SCC(=O)Nc2ccc(Cl)cc2)nnc1C1CC1,2,3,34,-47,-8,-9,-18,i,
CN(C(=O)CN1C(=O)c2ccccc2S1(=O)=O)c1ccccc1C(=O)O,-1,0,6,-4,-14,-14,3,i,
COc1ccc(OCCSc2ncc(CO)n2C)cc1,1,0,4,-9,1,-13,-10,i,
O=C(Nc1ccc(F)cc1)c1ccc2nc[nH]c2c1,4,7,3,-10,-3,x,-2,i,
# (cont.)
SMILES,MT1-MMP act inh,MT1-MMP act inh RFP,PABP FP inh,HIV Env fusion,eIF4H inh,UUG fidelity,CSC inhib,Rce1 inhib,others
CN1CCC(N(C)S(=O)(=O)c2ccc(NC(=O)c3ccc(S(=O)(=O)N(C)C)cc3)cc2)CC1,-2,-1,x,20,x,x,-24,x,
COc1ccccc1N(CC(=O)NCCSCc1ccccc1)S(=O)(=O)c1ccccc1,1,-14,x,22,x,-6,x,x,
COc1cccc(N2CCN(C(=S)Nc3cc(C)cc(C)c3)CC2)c1,-2,0,8,-12,-6,x,-3,i,
CN1CCC(OC(=O)Cc2ccc(Cl)cc2)CC1,2,5,5,-14,1,x,-4,i,
CCC(C)(C)c1nnc(NC(=O)C2CC(=O)N(CCc3ccc(F)cc3)C2)s1 (stereo not given),3,-4,9,5,-6,9,-9,i,
Cc1ccc(S(=O)(=O)N(CC(=O)N2CCc3ccccc3C2)c2cccc(Cl)c2)cc1,-3,-8,64,x,-4,13,30,i,eIF4H inh retest=-1;PABP FP inh retest=4
CC(=O)Nc1ccc(S(=O)(=O)N2CCC(c3nc4ccc(C)cc4[nH]3)CC2)cc1,-6,-3,0,14,-11,-9,13,i,
CCCCOc1ccc(/C=C/C2=CC(C)(C)NC(=S)N2)cc1OCC,-4,-7,2,-1,3,x,x,i,
CC(=O)Nc1ccc(S(=O)(=O)NCCC(=O)N2CCN(c3ccccc3Cl)CC2)cc1,6,1,x,x,x,-10,-6,x,
Nc1nc(N2CCN(c3ccccn3)CC2)nc2ccccc12,9,-1,24,-30,27,-3,-5,i,
Cn1ccnc1C(=O)c1ccc(S(=O)(=O)N2CCCC2)cc1,4,3,1,15,8,x,-10,i,
Cc1c(NC(=O)c2cccs2)cccc1-c1nc2ccccc2s1,1,-1,-8,2,3,x,-2,i,
COc1cc(/C=N/NC(=O)c2cccc(NC(=O)c3ccccc3C)c2)ccc1O,7,2,12,10,3,-22,-4,i,
COc1ccc(NC(=O)CSc2nc3ccccc3c(=O)n2CCCN2CCC(C)CC2)c(OC)c1,-3,-5,-12,23,-1,-6,12,i,
COC(=O)C[C@@H]1C[C@@H]2c3cc(NS(=O)(=O)c4ccccc4)ccc3O[C@@H]2[C@@H](CO)O1,1,2,x,-62,x,-8,x,x,
COc1ccc(C2C(C(=O)N3CCN(c4ccccn4)CC3)CC(=O)N2c2ccc(OC)cc2)cc1 (stereo not given),4,-3,-3,-15,-6,x,-2,i,
O=C(c1ccccc1C(=O)N1CCN(c2ccccc2F)CC1)N1CCN(c2ccccc2F)CC1,-4,-2,2,x,9,8,-15,i,
CCOC(=O)c1cnc(SC)nc1Sc1ccc(Cl)cc1Cl,6,-2,-7,x,-15,-15,-13,i,
O=C(CCN1C(=O)/C(=C/c2ccccc2)SC1=S)NNC(=O)c1ccncc1,3,6,-3,6,5,x,-4,i,
CCOC(=O)c1cnc2ccc(C(=O)OC)cc2c1NCCCN1CCOCC1,5,-1,13,-7,15,0,37,i,
CCOc1ccc(N(CC(=O)Nc2ccc(C)cc2C)S(C)(=O)=O)cc1,-2,-1,10,-15,8,5,15,i,
COc1ccc(CCNC(=O)CCSCc2ccccc2F)cc1OC,1,4,3,0,2,-9,-3,i,
CCOc1ccc(NC(=O)C(c2ccccn2)N(C(=O)CCl)c2ccc(OCC)cc2)cc1 (stereo not given),-3,4,7,x,50,x,14,x,eIF4H inh retest=-6;PABP FP inh retest=0
O=C(CN1C(=O)NC2(CCc3ccccc32)C1=O)Nc1cccc(Cl)c1 (stereo not given),0,0,x,-222,x,2,-6,x,
CCOC(=O)C1CCN(S(=O)(=O)c2ccc3[nH]c4c(c3c2)CCCC4)CC1,4,-7,-2,2,7,7,-9,i,
# Going on with the list.
SMILES,MT1-MMP act inh,MT1-MMP act inh RFP,PABP FP inh,HIV Env fusion,eIF4H inh,UUG fidelity,CSC inhib,Rce1 inhib,others
COc1ccc(C)cc1NC(=O)CSc1nnc(CC(=O)Nc2ccccc2C)n1C,0,0,-3,-13,-7,-7,4,i,
COc1ccccc1CNC(=O)C1CC(c2ccccc2F)=NO1 (stereo not given),4,0,4,-10,0,7,4,i,
CC(C)Cn1c(N)c(C(=O)COC(=O)c2cnccn2)c(=O)n(C)c1=O,-1,2,x,-3,x,x,-5,i,
C/C(=N\NC(=O)c1cc(-c2ccncc2)nc2ccccc12)c1ccc(N2CCOCC2)cc1,11,4,0,-8,1,x,-9,i,
CC(C)N(C(=O)CS(=O)(=O)c1ccc(Cl)c(Cl)c1)C(C)C,-5,-4,2,-6,14,x,6,i,
CCOc1ccccc1NS(=O)(=O)c1csc(C(N)=O)c1,-3,-3,0,-16,-7,-4,-3,i,
COc1ccc(/C=C/C2=CCN(Cc3ccc(OC)cc3)CC2)cc1,-8,-23,-2,13,-2,x,4,i,
COc1ccc(NS(=O)(=O)c2c(C)cc(C)cc2C)cc1,-1,-3,0,11,80,-5,20,+,eIF4H inh retest=-4;PABP FP inh retest=3
Cc1ccccc1N1C(=O)C(Oc2ccc(Cl)cc2)C1CNCCCOC(C)C (stereo not given),-7,-9,4,-57,-7,5,x,i,
O=C(NC1C2CC3CC(C2)CC1C3)C1CCCCC1 (stereo not given),-1,0,6,-18,1,2,-1,i,
CCOc1ccc2nc(SCC(=O)N3CCCCCC3)c(C#N)cc2c1,-3,-7,1,x,-4,-12,14,i,
Nc1nc(-c2ccc(Cl)cc2)nnc1-c1ccc(Br)cc1,0,-1,-4,-93,16,-4,13,i,
CCc1nc2ccc(C(=O)N3CCN(C(=O)c4ccco4)CC3)cn2c1N(C)Cc1nccs1,1,-1,x,5,x,-12,x,x,
N#C/C(=C\c1ccc(Cl)cc1)C(=O)Nc1cccnc1,8,7,7,-6,-5,x,18,i,
CC(=O)Nc1ccc(NC(=O)C2CCN(c3c(Cc4ccccc4)c(C)nc4ncnn34)CC2)cc1,4,-4,x,x,x,0,-3,i,
CC(C)CN1CCN=C1Nc1ccccc1,3,6,14,1,-9,-24,12,u,
Cc1ccc(C)c(NC(=O)CN(C)C(=O)c2cc([N+](=O)[O-])ccc2N2CCOCC2)c1,-1,-1,x,-2,x,x,-8,i,
COc1ccc(Cl)cc1N(CC(=O)N1CCCC1)S(C)(=O)=O,-2,2,6,-25,3,-15,-25,i,
CC1CCCN(S(=O)(=O)c2ccc(C(=O)Nc3nnc(C4=COCCO4)o3)cc2)C1 (stereo not given),-4,1,20,26,9,-26,-4,i,
CCn1c(C)cc(C(=O)CN2C(=O)c3ccccc3S2(=O)=O)c1C,2,0,x,98*,x,-27,-11,x,
Cc1cc(=O)[nH]c(SCc2cccc(F)c2)n1,9,10,-3,-59,-10,-12,0,i,
COc1ccc(Cn2c(=O)sc3ccccc32)cc1,2,4,3,-180,-6,-10,1,i,
CCCC(C(=O)NC1CCCC1)N(Cc1cccs1)C(=O)c1snc(C(N)=O)c1N (stereo not given),3,2,6,x,9,-14,2,i,
Fc1cccc(-c2c(-c3ccccc3)ncc3cc(F)ccc23)c1,-5,-4,x,7,x,-7,6,x,
COc1ccc(-c2cc(C)no2)cc1S(=O)(=O)N1CCN(C(=O)c2ccco2)CC1,-2,1,4,3,15,-21,-6,i,
COc1ccccc1C(=O)n1nc(-c2ccccc2)nc1NCc1ccco1,12,3,-3,-33,0,-18,-14,i,
COc1ccc(-c2nc(SCc3ccc(C#N)cc3)[nH]c(=O)c2C#N)cc1,-2,0,10,14,3,-12,24,i,
O=C(COc1cccc2cccnc12)Nc1cccc(S(=O)(=O)N2CCCC2)c1,4,-4,x,3,x,0,-6,x,
O=C(N/N=C\c1cc(Cl)ccc1O)c1ccc(S(=O)(=O)N2CCCCC2)cc1,0,0,5,-15,3,-8,-4,i,
Cc1cccc(C(=O)c2c(N)sc3c2CCC(C)C3)c1 (stereo not given),-7,-2,48,-4,-14,-26,43,i,

# The list is partial (hit frequency here may not be typical).
